Source: PubChem BioAssay (several laboratories)
MLL AF4-AF9 inh: blocks AF4 peptide binding to human AF9 | P42568 | AlphaScreen, biotin-AF4 peptide binding to FLAG-AF9 | inhibition, % at 10 µM | hit rate 0.47% among 350,000 | AID 651704;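 active = every replicate reaching a set inhibition limit, whatever the replicate mean, cut at about 25% in these data; inconclusive = mean inhibition reaches that limit but some replicates miss it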;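 also: 0% = plate neutral control median and 100% = total signal loss; the record names both 10 and 1 µM as test concentration; the first replicate is given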
Target sequence (P42568 whole entry, looked up): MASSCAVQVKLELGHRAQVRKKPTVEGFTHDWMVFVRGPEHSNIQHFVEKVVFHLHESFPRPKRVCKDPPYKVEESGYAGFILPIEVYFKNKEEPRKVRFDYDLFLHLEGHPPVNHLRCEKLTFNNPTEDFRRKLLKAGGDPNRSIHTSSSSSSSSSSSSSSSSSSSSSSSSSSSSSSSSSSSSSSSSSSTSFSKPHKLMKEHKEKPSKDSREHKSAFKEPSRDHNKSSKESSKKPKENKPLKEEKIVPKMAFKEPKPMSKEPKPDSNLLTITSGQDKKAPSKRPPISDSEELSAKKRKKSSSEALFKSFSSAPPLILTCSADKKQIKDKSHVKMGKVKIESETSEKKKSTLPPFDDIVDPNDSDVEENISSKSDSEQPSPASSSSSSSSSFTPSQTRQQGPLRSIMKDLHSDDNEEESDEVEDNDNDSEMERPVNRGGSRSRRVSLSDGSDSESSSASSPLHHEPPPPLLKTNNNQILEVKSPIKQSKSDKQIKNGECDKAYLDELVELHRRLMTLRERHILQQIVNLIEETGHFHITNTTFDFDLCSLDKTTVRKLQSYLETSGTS
Beta cell apopt: blocks beta cell apoptosis | AID 435005 | hit rate 0.8% among 300,000 | INS-1E cytokine-induced death, ATP luminescence, 48 h; percent of positive-control rescue, neutral wells zero | protection from apoptosis, % (test concentration not listed);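 active = all replicates at 75% or more, or half of them and the mean; inconclusive = half reach 75% but not the mean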;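 also: 0% = cytokine-treated negative control wells and 100% = positive control rescue; higher means more ATP so stronger rescue from cytokine killing; wells of about 40 µL received 100 nL stock; the first replicate is given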
Calb FLC: affects C. albicans growth with fluconazole. C. albicans CaCi-2 (fluconazole-resistant clinical isolate) + fluconazole, Alamar Blue growth, 48 h. AID 1979. growth inhibition, % (no concentration beside the values). hit rate 0.57% among 300,000;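 active = most replicates above 75%; inconclusive = exactly half above 75%; inactive = most below 75%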;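 also: all wells also contain fluconazole at 8 µg/ml as a sub-toxic cotreatment; 0% = median of DMSO wells and 100% = median of geldanamycin control wells; wells of about 8 µL received 7.5 nL stock; the first replicate is given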
Bfl-1 A1 inh: inhibitors of the anti-apoptotic protein A1, read as caspase activation | MEF A1-2A-BIM cells, Caspase-Glo 3/7 luminescence, 3 h; percent of clofoctol response, vehicle zero | caspase activation, % (concentration not given with the values) | hit rate 0.066% among 330,000;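 active = over half of replicate activation scores above 10%, or exactly half above 10 with the replicate mean above 10; inconclusive = replicate mean below 10 yet half the replicates above 10; inactive = over half of replicates below 10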;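 also: wells of about 30 µL received 50 nL stock; many hits fall short of the cut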
RanGTP-Impb inh: disruptors of Ran-importin-beta complex formation – biochemical, FRET, CFP-Ran, YFP-importin-beta, homogeneous, primary screen | cell-free CFP-Ran/YFP-importin-beta FRET ratio | hit rate 1.1% among 300,000 | inhibition, % (no concentration beside the values);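 active = most replicates above 15%; inconclusive = exactly half above 15%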;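 also: 0% = DMSO wells and 100% = Ran loaded with GDP instead of GTP; wells of about 40 µL received 100 nL stock; the first replicate is given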
Vif TR-FRET: HIV-1 Vif–A3G interaction blockers – biochemical, TR-FRET, GST-Vif 1-94, biotin-A3G peptide, dose response retest, primary screen (AID 1117319) | TR-FRET GST-Vif / biotin-A3G peptide binding; higher % means a stronger effect; test concentration not given here; strong numbers were not always called active | one-dose inhibition, %; IC50 in µM for titrated hits | hit rate 0.57% among 260,000;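 active = above the screen mean plus three standard deviations and confirmed in dose response; inconclusive = results disagree or hit not tested in dose response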;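 also: Vif residues 1-94 fused to GST binding biotinylated APOBEC3G peptide 110-148; 0% = full assay without inhibitor and 100% = GST in place of GST-Vif; retest series ran down from 100 µM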
LANA-H2A inh: blocks KSHV LANA binding to histone H2A/H2B | Q9QR71 | cell-free LANA-H2A/H2B peptide, fluorescence polarization | inhibition, % (test concentration not listed) | hit rate 0.6% among 320,000; in the data active = inhibition mostly above about 10%, no sharp cut-off; inactive = mostly below about 6.7%;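 also: stock transfer was 7.5 nL into about 10 µL; 0% = median of vehicle wells and 100% = median of positive control wells; one replicate is shown; the record names a cut of 25% in any replicate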
T cruzi inh: T. cruzi replication inhibition; inhibition, % (no concentration beside the values); hit rate 1.4% among 300,000; T. cruzi beta-gal in NIH3T3, luminescence, 90 h; AID 1885;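 active = mean inhibition across valid replicates above about 55%, limit read from the data; inconclusive = mean below that limit but half or more replicates reach it; inactive = mean below it, under half of replicates reach it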;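 also: signal also drops with host cell toxicity which is not excluded here; 0% = plate median of DMSO wells and 100% = zero luminescence signal; higher percent means less beta-gal luminescence so fewer parasites; stock transfer was 50 nL into about 50 µL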
Active calls of the source: *; ? = inconclusive; . = no result given.

Values in the order – MLL AF4-AF9 inh, Beta cell apopt, Calb FLC, Bfl-1 A1 inh, RanGTP-Impb inh, Vif TR-FRET, LANA-H2A inh, T cruzi inh
- O=C(CCN1CCN(CCO)CC1)Nc1ccc(F)c(F)c1
    ., -5.4, 6.7, 0.3, 1.6, 7.1%, 1.8, -7.7
- O=C(O)C(=O)/C(=C\c1ccc(Cl)cc1)c1ccc2ccccc2n1
    3.0, 0.2, 10.4, -1.2, -4.6, -7.7%, ., -8.5
- C/C(N)=C(/C#N)C(=O)COC(=O)CC1CCCC1
    ., 3.2, -3.8, 0.1, 2.4, -3.3%, -6.0, -3.6
- O=C(COC(=O)c1ccco1)Nc1nnc(-c2ccccc2)o1
    -15.6, 0.2, 3.8, 0.3, 5.4, 6.3%, -3.7, -2.5
- CCOc1cc(NC(=S)NCc2ccccc2)c(OCC)cc1NC(=O)C(C)C
    -15.5, -0.6, 16.4, -0.7, 4.1, ., -0.5, 6.0
- Cc1ccccc1/C=C1\CCCc2ccccc2C1=O
    ., 1.3, 7.3, -15.0, 0.0, -3.1%, 2.0, 16.4
- O=C1CCCCN1CCCC(=O)N1CCCC(Nc2ccc(F)cc2)C1 (stereo not given)
    0.6, -1.3, 6.6, -0.2, 4.1, ., 4.3, -2.0
- Cc1ccc(/C=C/C(=O)Nc2sc3c(c2C#N)CCCC3)o1
    -1.9, -9.3, -17.2, 0.5, 1.1, 23.5%, 5.1, -21.1
- O=C1CC(N2CCC(c3nc4ccccc4o3)CC2)C(=O)N1 (stereo not given)
    -7.3, -1.1, -4.7, 0.6, -1.1, 7.4%, 6.3, 3.6
- CN1CCN(C(=O)c2ccccc2NC(=O)c2sc3ccccc3c2Cl)CC1
    1.4, 2.7, 10.0, 0.6, -4.6, ., -6.9, -8.6

Quoted from the listing.
Result for CCOc1cc(NC(=S)NCc2ccccc2)c(OCC)cc1NC(=O)C(C)C in T cruzi inh: 6.0
Result for O=C(COC(=O)c1ccco1)Nc1nnc(-c2ccccc2)o1 in Beta cell apopt: 0.2
Result for O=C1CC(N2CCC(c3nc4ccccc4o3)CC2)C(=O)N1 (stereo not given) in MLL AF4-AF9 inh: -7.3
Result for O=C(O)C(=O)/C(=C\c1ccc(Cl)cc1)c1ccc2ccccc2n1 in RanGTP-Impb inh: -4.6
Result for Cc1ccccc1/C=C1\CCCc2ccccc2C1=O in LANA-H2A inh: 2.0
Result for CN1CCN(C(=O)c2ccccc2NC(=O)c2sc3ccccc3c2Cl)CC1 in MLL AF4-AF9 inh: 1.4
Result for Cc1ccc(/C=C/C(=O)Nc2sc3c(c2C#N)CCCC3)o1 in RanGTP-Impb inh: 1.1

New compounds follow
Values in the order – MLL AF4-AF9 inh, Beta cell apopt, Calb FLC, Bfl-1 A1 inh, RanGTP-Impb inh, Vif TR-FRET, LANA-H2A inh, T cruzi inh
- CC(=O)c1nn(-c2cccc(C(F)(F)F)c2)c(=O)[nH]c1=O
    -0.7, 19.5, -11.8, -1.1, -1.6, -8.4%, 5.1, 5.4
- COc1ccc(Br)cc1C(=O)Nc1cc(C)cc(C)c1
    ., 1.5, 0.5, -0.2, -0.9, 14.5%, -2.2, 25.3
- Cc1ccc(C(=O)C2=C(O)C(=O)N(Cc3ccco3)C2c2cccc(Cl)c2)o1 (stereo not given)
    -0.7, 1.1, 32.7, 0.4, -1.4, ., 0.2, -2.1
- O=C(CNCc1cccs1)Nc1ccc(OC(F)(F)F)cc1
    -1.1, 0.2, -7.1, 1.6, 8.6, -2.9%, 3.2, 1.9
- O=C(CCN1C(=O)C2C3C=CC(C3)C2C1=O)Nc1ccccc1 (stereo not given)
    -1.1, -6.0, -5.0, 0.1, ., 23.6%, 3.0, -19.9
- CCOC(=O)N1CCC(NC(=O)c2ccc3c(c2)ncn3C2CCCC2)CC1
    1.8, 3.0, 26.9, 0.7, -4.3, -2.8%, 1.4, 1.4
- CCN(C(=O)COC(=O)c1ccc(Cl)cc1N)C1CCCCC1
    -3.7, 0.0, -0.3, 0.1, -0.8, 1.5%, 0.3, 8.6
- O=C(NCc1nnc(SCC(=O)N2CCCC2)o1)c1ccc(F)cc1
    -1.8, 2.1, 2.0, -0.6, 4.7, 13.7%, -0.1, -13.8
- Cc1cccc(C)c1NC(=O)C(c1ccccc1)N1CC(=O)Nc2ccccc21 (stereo not given)
    6.9, 2.7, -11.3, 0.1, 7.9, ., -11.6, 0.1
- Cc1cccc(N2CC(C(=O)Nc3ccc4c(c3)OCO4)CC2=O)c1C (stereo not given)
    ., 2.0, 3.8, 1.6, 2.9, -3.3%, 1.7, -4.6

Values in the order – MLL AF4-AF9 inh, Beta cell apopt, Calb FLC, Bfl-1 A1 inh, RanGTP-Impb inh, Vif TR-FRET, LANA-H2A inh, T cruzi inh
- Cc1nn(-c2ccccc2)c2sc(C(=O)OCc3nnc(-c4ccccc4)o3)cc12
    ., -7.6, 10.2, -0.8, 2.3, -19.0%, 0.2, 0.9
- CCS(=O)(=O)NCc1cn2ccsc2n1
    ., -2.5, -6.5, -0.5, 4.2, -3.1%, -4.6, -7.7
- Cc1nn(CC(=O)NCCC2=CCCCC2)c(C)c1S(=O)(=O)N(C)C
    -2.2, 2.0, ., 0.3, ., ., 2.0, .
- COc1cc(C2=NOC(C(=O)Nc3ccc(C)cc3)C2)cc(OC)c1OC (stereo not given)
    ., -1.5, 47.1, ?, -4.4, 4.4%, 1.4, -1.3
- C=C(C)Cn1c(SCC(=O)O)nnc1-c1ccccc1
    ., -1.9, 10.8, 0.5, ?, 21.2%, 2.5, -14.0
- CC(C)COc1ccc(C(=O)Nc2ccc(SC(F)F)cc2)cc1
    -0.9, 4.7, ., -0.8, ., -5.1%, 1.5, 19.7
- Cc1cc(C)c2[nH]c(=O)c(CN(CC3CCCO3)C(=S)Nc3ccccc3)cc2c1 (stereo not given)
    ., -0.5, -8.3, 0.1, -2.3, ., 0.8, 4.4
- Cc1ccc(OCCOC(=O)Nc2ccccc2)cc1
    1.8, -3.0, -26.0, 0.2, -2.7, -3.8%, 2.5, 5.5
- OCC[C@@H]1C[C@@H](O)[C@H](O)[C@]2(CCCc3ccccc3O2)O1
    -21.2, -5.0, 1.1, 0.3, 4.0, ., -0.2, -5.0
- C/C(=N/NC(=O)c1cccs1)c1ccc(N2CCOCC2)cc1
    1.8, 4.9, -8.6, -0.5, ?, -0.1%, -4.3, 0.8

Values in the order – MLL AF4-AF9 inh, Beta cell apopt, Calb FLC, Bfl-1 A1 inh, RanGTP-Impb inh, Vif TR-FRET, LANA-H2A inh, T cruzi inh
- O=C(Nc1ccc(SC(F)F)cc1)c1ccccc1F
    -2.0, ., 21.4, -6.7, 4.1, ., -1.5, -0.1
- CCOC(=O)c1sc(-c2ccccc2)nc1C
    7.7, 0.0, -5.6, 0.9, 0.9, -8.2%, -3.9, 1.2
- Cc1cc(C)n2nc(N)c(N=Nc3cccc(Cl)c3)c2n1
    0.4, 5.8, 1.3, -1.1, -3.1, 0.6%, 0.9, 11.7
- CS(=O)(=O)N(CC(=O)N1CCOCC1)c1cccc(F)c1
    -10.2, -2.7, 1.6, -0.7, 3.9, ., -2.9, -24.4
- Cc1ccc(O)c(CNc2cnc3ccccc3c2)c1
    9.3, 0.1, -1.5, 0.6, -0.1, ., -0.9, 12.9
- CC(C)CCNC(=O)Cc1c(C(=O)O)[nH]c2ccc(Cl)cc12
    ., -0.7, 2.7, 0.0, ?, 14.0%, 1.1, -1.3
- COc1c2ccc(C(=O)NCc3cc(C(F)(F)F)cc(C(F)(F)F)c3)cc2nn1C
    -0.6, -3.2, -2.1, -0.1, 0.2, 11.1%, -1.1, -12.0
- Cc1ccc(S(=O)(=O)N2CCN(Cc3nnc(-c4c(-c5ccccc5)noc4C)o3)CC2)cc1
    -0.2, -1.0, ., 0.4, ., -1.0%, -0.3, .
- COC(=O)c1[nH]c2ccc(C)cc2c1NC(=O)c1ccccc1[N+](=O)[O-]
    ., 2.7, 9.1, -0.6, 2.7, ., 2.1, -4.7
- COCCn1nnnc1C(C(C)C)N1CCC(Cc2ccccc2)CC1 (stereo not given)
    ., 0.4, -6.5, 0.5, -2.8, ?, 9.3, 17.8

Values in the order – MLL AF4-AF9 inh, Beta cell apopt, Calb FLC, Bfl-1 A1 inh, RanGTP-Impb inh, Vif TR-FRET, LANA-H2A inh, T cruzi inh
- O=C(Cn1nc(-c2ccccc2)ccc1=O)N1CCOCC1
    -6.4, -3.9, -1.6, -0.3, 2.5, ., -4.3, -11.6
- COc1ccccc1C1=Nn2c(nnc2C2CCCCC2)SC1
    ., 8.5, ., -0.1, ., -1.6%, -5.9, .
- CCOC(=O)N1CCN(C(=O)C2CCN(C(=O)Nc3ccccc3)CC2)CC1
    -1.4, 4.2, ., 0.4, ., -3.9%, -1.4, .
- CCOc1cc(CNCCSc2nnnn2C)cc(Br)c1OCc1ccccc1F
    ., 2.1, ?, -0.3, -3.4, 3.6%, -1.2, 67.9*
- COc1ccc(C(=O)NNC(=O)c2ccc(C)cc2)cc1S(=O)(=O)N1CCCC1
    -1.2, 1.9, 8.2, 0.2, 9.4, -1.1%, 0.9, -5.7
- CCOC(=O)CN(C(=O)Cn1nnc2ccccc21)C(C(=O)NCCOC)c1ccccc1 (stereo not given)
    ., -1.3, 1.0, -0.1, 3.4, 22.1%, -0.5, 2.1
- CCc1nn2c(=O)cc(COC(=O)c3cc(Cl)c(OC)c(OC)c3)nc2s1
    1.1, -2.2, ., -1.0, ., 2.2%, 1.3, .
- CCOC(=O)N1CCN(C(=O)CCc2ccccc2)CC1
    5.5, -8.4, -2.4, 0.2, 8.6, ., -1.1, -12.5
- C=CCNC(=O)C1COc2ccccc2O1 (stereo not given)
    6.3, -5.0, 1.1, 1.5, 2.2, -12.5%, -8.2, -9.8
- CN(CC(=O)Nc1ccc(Cl)c(C(F)(F)F)c1)C(=O)c1cccc(N2C(=O)CCC2=O)c1
    -2.2, 0.9, ., 0.1, ., 4.2%, -4.8, .
- O=C1Nc2ccccc2C(=O)N2C[C@@H](O)C[C@H]12
    49.0*, -4.3, -6.2, -0.6, 1.0, -3.0%, 8.2, -4.9
- Cc1occc1C(=O)Nc1cnn(CCCC(=O)O)c1
    -1.9, -1.1, 0.1, 1.1, -1.2, ., -0.6, -15.0

3 records picked at random from the list so far, as already listed:
Values in the order – MLL AF4-AF9 inh, Beta cell apopt, Calb FLC, Bfl-1 A1 inh, RanGTP-Impb inh, Vif TR-FRET, LANA-H2A inh, T cruzi inh
- CCc1nn2c(=O)cc(COC(=O)c3cc(Cl)c(OC)c(OC)c3)nc2s1
    1.1, -2.2, ., -1.0, ., 2.2%, 1.3, .
- CCOc1cc(CNCCSc2nnnn2C)cc(Br)c1OCc1ccccc1F
    ., 2.1, ?, -0.3, -3.4, 3.6%, -1.2, 67.9*
- CCOC(=O)N1CCN(C(=O)C2CCN(C(=O)Nc3ccccc3)CC2)CC1
    -1.4, 4.2, ., 0.4, ., -3.9%, -1.4, .
